KLF5 inh: kruppel-like factor 5 inhibition. DLD-1 KLF5 promoter-luciferase reporter, luminescence. 290,000 compounds, 0.23% hits. AID 1700. inhibition, % at 5 µM;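 active means inhibition above a per-plate limit of that plate's mean compound inhibition plus 3 SD, cut at about 60% in these data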;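 further: 0% = DMSO wells and 100% = LY294002 at 200 µM; higher means less KLF5 promoter-driven luciferase light; inactives centre near -14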
GSK3beta inhib: blocks human GSK3beta kinase activity; GST-GSK3beta kinase, ADP-Glo luminescence, 60 min; active compounds read low; 300,000 compounds, 0.038% hits; P49841; activity score (negative = inhibition), % at 10 µM;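 active means more than half of replicate wells score below -50%, meaning over 50% inhibition versus plate controls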;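 further: 0% = median DMSO wells and -100% = median GW8510 positive control wells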
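Assay system: GST-fused GSK3beta enzyme, cell-free / Medium: Tris pH 7.5 buffer with MgCl2, DTT, BSA, heparin / Also added: peptide substrate plus 25 µM ATP (final) / Compound: 10 µM single point / Timing: kinase reaction with compound 60 min at room temperature / Detection: ADP-Glo luminescence / Benchmarks: DMSO neutral wells and GW8510 at 20 µM as positive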
GSK3A inh: blocks human GSK-3 alpha kinase | inhibition, % at 10 µM | 320,000 compounds, 0.1% hits | ADP-Glo luminescence, 60 min | AID 2650;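 in the data active means inhibition above about 50%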;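 further: GST-tagged GSK-3 alpha with peptide substrate and 25 µM ATP; 0% = DMSO neutral wells and 100% = GW8510 positive control wells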
Target sequence (P49840 whole entry, looked up): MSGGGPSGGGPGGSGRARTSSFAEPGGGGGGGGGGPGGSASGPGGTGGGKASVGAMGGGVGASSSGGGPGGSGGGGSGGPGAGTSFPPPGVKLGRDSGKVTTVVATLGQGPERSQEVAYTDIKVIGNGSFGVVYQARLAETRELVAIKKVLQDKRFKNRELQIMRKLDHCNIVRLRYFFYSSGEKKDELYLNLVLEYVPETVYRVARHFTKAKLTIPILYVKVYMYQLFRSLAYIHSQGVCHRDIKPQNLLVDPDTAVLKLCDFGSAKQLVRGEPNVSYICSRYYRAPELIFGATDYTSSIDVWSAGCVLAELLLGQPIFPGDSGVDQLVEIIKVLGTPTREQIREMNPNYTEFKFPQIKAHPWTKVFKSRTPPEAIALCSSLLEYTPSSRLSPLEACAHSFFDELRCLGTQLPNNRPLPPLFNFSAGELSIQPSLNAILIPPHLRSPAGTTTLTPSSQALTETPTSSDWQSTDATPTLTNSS
AI-2 QS modul: Vibrio harveyi AI-2 quorum sensing modulation; Vibrio harveyi JMH597 AI-2 luminescence/OD600 ratio, 9 h; active compounds read low; strain lacks LuxN and CqsS sensors; 0 = neutral-control median; activity change, % at 7.5 µM; 300,000 compounds, 0.4% hits; in the data active means activity change below about -75%, passing the limit was not always enough;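 further: luminescence divided by OD600 gain over 9 h not by final OD600 alone; inactives centre near 13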
IEC-6 cytotox: counter-screen for KLF5 inhibitors: cytotoxicity in IEC-6 cells; 290,000 compounds, 0.78% hits; AID 1825; inhibition, % at 5 µM; IEC-6 cytotoxicity, luminescence viability; in the data active means inhibition above about 22%;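 further: 0% = plate median of test compound wells and 100% = cytotoxic reference compound wells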
Active calls of the source: *; & = joins results of further samples.

CC(C)NC[C@H](O)c1ccc(O)c(O)c1 was read as GSK3A inh -3.
`CC[n+]1c(/C=C(/C)SC)sc2ccccc21` gave KLF5 inh -14, GSK3beta inhib -2, GSK3A inh 0, AI-2 QS modul 10 and IEC-6 cytotox -4.
Screening Oc1cc2c(c(Cl)c1O)CCNCC2c1ccccc1 (stereo unspecified) returned GSK3beta inhib -16, GSK3A inh 2 and AI-2 QS modul 2.
Screening CN(C)CCc1c[nH]c2ccc(Cn3cncn3)cc12 returned GSK3beta inhib 1, GSK3A inh -5 and AI-2 QS modul 11.
Screening Cc1cc(C(=O)COC(=O)c2ccco2)c(C)n1Cc1ccco1 returned KLF5 inh -13, GSK3beta inhib -1, GSK3A inh -1, AI-2 QS modul 50 and IEC-6 cytotox -10.
For CN(C)CCCN1c2ccccc2Sc2ccc(Cl)cc21 the results were KLF5 inh -4&-28, GSK3beta inhib -6&0, GSK3A inh 6&6, AI-2 QS modul 25&19 and IEC-6 cytotox 3&3.
For Nc1ccn([C@@H]2CS[C@H](CO)O2)c(=O)n1 the results were KLF5 inh -32, GSK3beta inhib -1, GSK3A inh 1, AI-2 QS modul 7 and IEC-6 cytotox -2.
`COc1ccc(-c2coc3cc(O)ccc3c2=O)cc1` gave GSK3beta inhib 1, GSK3A inh -2 and AI-2 QS modul 13.
Screening Nc1nc2c(ncn2COCCO)c(=O)[nH]1 returned KLF5 inh -4, GSK3beta inhib 2, GSK3A inh -5, AI-2 QS modul 14 and IEC-6 cytotox 3.
Screening c1ccn2cc(-c3ccc4c(c3)OCCO4)nc2c1 returned KLF5 inh -23, GSK3beta inhib -4, GSK3A inh 4, AI-2 QS modul 11 and IEC-6 cytotox 11.
Screening CCN1C(=O)c2ccc(C(=O)Nc3cccc(C(=O)O)c3)cc2C1=O returned KLF5 inh -9, GSK3beta inhib 0, GSK3A inh -2, AI-2 QS modul 27 and IEC-6 cytotox 8.
OC(CNCC1CCCO1)Cn1c2ccccc2c2ccccc21 (stereo unspecified) was read as KLF5 inh -16, GSK3beta inhib -3, GSK3A inh 0, AI-2 QS modul 18 and IEC-6 cytotox -3.
CN1CCN(c2c(F)cc3c(=O)c(C(=O)O)cn4c3c2OCN4C)CC1 was read as KLF5 inh 6, GSK3beta inhib 1, GSK3A inh 0, AI-2 QS modul 19 and IEC-6 cytotox 3.
`C[N+]1(C)CC[C@H](OC(=O)[C@@](O)(c2ccccc2)C2CCCC2)C1` gave KLF5 inh -16, GSK3beta inhib 1, GSK3A inh -2, AI-2 QS modul 12 and IEC-6 cytotox 0.
Screening COc1ccc2nc(N)sc2c1 returned KLF5 inh -37, GSK3beta inhib -2, GSK3A inh -4, AI-2 QS modul 13 and IEC-6 cytotox -6.
Cc1nnc(SCC2=C(C(=O)O)N3C(=O)C(NC(=O)Cn4cnnn4)C3SC2)s1 (stereo unspecified) was read as KLF5 inh -19, GSK3beta inhib 2, GSK3A inh -5, AI-2 QS modul 15 and IEC-6 cytotox -5.
Screening COc1ccc(-c2nc(-c3ccccc3)no2)c(OC)c1 returned KLF5 inh -38, GSK3beta inhib 1, GSK3A inh 1, AI-2 QS modul 11 and IEC-6 cytotox 2.
`CN1[C@@H]2CC(OC(=O)[C@H](CO)c3ccccc3)C[C@H]1[C@@H]1O[C@@H]12` (stereo partly specified) gave KLF5 inh -6&2, GSK3beta inhib 3&3, GSK3A inh -3&-5&-3, AI-2 QS modul 15&12&23 and IEC-6 cytotox -5&2.
For Cn1c(NCCN(CCO)CCCc2ccc([N+](=O)[O-])cc2)cc(=O)n(C)c1=O the results were GSK3beta inhib 1, GSK3A inh 0 and AI-2 QS modul 14.
CC#C[C@]1(O)CC[C@H]2[C@@H]3CCC4=CC(=O)CCC4=C3[C@@H](c3ccc(N(C)C)cc3)C[C@@]21C was read as KLF5 inh 14, GSK3beta inhib 1, GSK3A inh -4, AI-2 QS modul 20 and IEC-6 cytotox 6.
`O=C(O)CCc1cc(I)c(Oc2ccc(O)c(I)c2)c(I)c1` gave GSK3beta inhib -1 and AI-2 QS modul -33.
`CC(=O)O[C@H]1C(=O)[C@@]2(C)[C@H]([C@H](OC(=O)c3ccccc3)[C@]3(O)C[C@H](OC(=O)[C@H](O)[C@@H](NC(=O)c4ccccc4)c4ccccc4)C(C)=C1C3(C)C)[C@]1(OC(C)=O)CO[C@@H]1C[C@@H]2O` gave GSK3A inh 0.
CCn1nc(C(=O)O)c(=O)c2cc3c(cc21)OCO3 was read as KLF5 inh 0, GSK3beta inhib 1, GSK3A inh -2, AI-2 QS modul 15 and IEC-6 cytotox 0.
`CCCOc1ccc(-c2cn3ccccc3n2)cc1` gave KLF5 inh 30, GSK3beta inhib -4, GSK3A inh 7, AI-2 QS modul -29 and IEC-6 cytotox 6.
Screening Cc1ccn2cc(-c3cccc([N+](=O)[O-])c3)nc2c1 returned KLF5 inh -56, GSK3beta inhib 2, GSK3A inh 0, AI-2 QS modul 10 and IEC-6 cytotox 14.
`CC/C(=C/c1sc2ccccc2[n+]1CC)SC` gave KLF5 inh -33, GSK3beta inhib -7, GSK3A inh -1, AI-2 QS modul 24 and IEC-6 cytotox 3.
Screening COc1ccc(NC(=O)c2ccc([N+](=O)[O-])o2)cc1 returned KLF5 inh -20, GSK3beta inhib -2, GSK3A inh 2, AI-2 QS modul -4 and IEC-6 cytotox 44*.
For CNCC(=O)O the results were GSK3A inh -2.
O=C(CCCN1CC=C(n2c(=O)[nH]c3ccccc32)CC1)c1ccc(F)cc1 was read as KLF5 inh -37&-11, GSK3beta inhib -1, GSK3A inh 4, AI-2 QS modul 13 and IEC-6 cytotox 0&0.
`CC(=O)OCC(CCn1cnc2cnc(N)nc21)COC(C)=O` gave KLF5 inh -33, GSK3beta inhib 2, GSK3A inh -4, AI-2 QS modul 33 and IEC-6 cytotox -6.

Among those listed so far, three contain two or more sulfur atoms:
`CC[n+]1c(/C=C(/C)SC)sc2ccccc21` gave KLF5 inh -14, GSK3beta inhib -2, GSK3A inh 0, AI-2 QS modul 10 and IEC-6 cytotox -4.
Cc1nnc(SCC2=C(C(=O)O)N3C(=O)C(NC(=O)Cn4cnnn4)C3SC2)s1 (stereo unspecified) was read as KLF5 inh -19, GSK3beta inhib 2, GSK3A inh -5, AI-2 QS modul 15 and IEC-6 cytotox -5.
`CC/C(=C/c1sc2ccccc2[n+]1CC)SC` gave KLF5 inh -33, GSK3beta inhib -7, GSK3A inh -1, AI-2 QS modul 24 and IEC-6 cytotox 3.

Looked up by structure from the list above, 3 records:
O=C(CCCN1CC=C(n2c(=O)[nH]c3ccccc32)CC1)c1ccc(F)cc1 was read as KLF5 inh -37&-11, GSK3beta inhib -1, GSK3A inh 4, AI-2 QS modul 13 and IEC-6 cytotox 0&0.
`CC(=O)O[C@H]1C(=O)[C@@]2(C)[C@H]([C@H](OC(=O)c3ccccc3)[C@]3(O)C[C@H](OC(=O)[C@H](O)[C@@H](NC(=O)c4ccccc4)c4ccccc4)C(C)=C1C3(C)C)[C@]1(OC(C)=O)CO[C@@H]1C[C@@H]2O` gave GSK3A inh 0.
`CCCOc1ccc(-c2cn3ccccc3n2)cc1` gave KLF5 inh 30, GSK3beta inhib -4, GSK3A inh 7, AI-2 QS modul -29 and IEC-6 cytotox 6.

More results:
Cc1[nH]ccc2c1[nH]c1cc(=O)ccc12 was read as KLF5 inh -6, GSK3beta inhib 0, GSK3A inh 4, AI-2 QS modul 13 and IEC-6 cytotox 8.
For Cn1c(=O)c2[nH]cnc2n(C)c1=O the results were KLF5 inh -11, GSK3beta inhib -1, GSK3A inh -5, AI-2 QS modul 13 and IEC-6 cytotox -5.
For CCN(Cc1ccncc1)C(=O)C(CO)c1ccccc1 (stereo unspecified) the results were KLF5 inh -28, GSK3beta inhib -2, GSK3A inh 1, AI-2 QS modul -1 and IEC-6 cytotox -1.
`CC(=O)OCC(=O)C1(O)CCC2C3CCC4=CC(=O)C=CC4(C)C3C(O)CC21C` (stereo unspecified) gave KLF5 inh 13, GSK3beta inhib 1, GSK3A inh 2, AI-2 QS modul 25 and IEC-6 cytotox 17.
For Cc1ccc(NC(=O)C(=O)Nc2ccccn2)cc1 the results were KLF5 inh -138, GSK3beta inhib 0, GSK3A inh 1, AI-2 QS modul 8 and IEC-6 cytotox 0.

This is a subset; rates above refer to the full screens.
